Bioassay records from PubChem BioAssay.
Insulin prom up: insulin promoter activators in MIN6 cells, imaging, high-content screening, mouse beta cells; MIN6 insulin promoter-GFP reporter; active compounds read high; z-score at 5 µM; 0.3% of 190,000 active; AID 1625, 2009;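 active = z-score above 3 at 5 µM with at least 500 cells counted in the well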
Autophagy HCS: autophagy modulators in MEF cells, primary screen, imaging, high-content, MEF GFP-LC3; MEF GFP-LC3 puncta imaging; test concentration mostly 10 µM; calls only at 10 µM (by protocol); 0.98% of 190,000 active;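 active = percentage of spot-positive cells more than 3 SD above its plate mean, without a fluorescence outlier flag or 80% toxicity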;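 also: spot-positive cell cutoff set from DMSO-treated cells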
MT stabilizer: microtubule stabilizers in HeLa cells, primary screen, imaging, high-content imaging; HeLa tubulin immunostaining HCS, 24 h; share of cells brighter than vehicle mean+2SD; % tubulin-high responders, % at 10 µM; 0.83% of 200,000 active; AID 2205, 2009;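 active = plate Z-score above 3 for both tubulin-high and condensed-nucleus cell shares, with cell loss under 80%, at 10 µM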;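 also: anti alpha tubulin signal scored within the nucleus-defined area of each cell; some results filed as inactive read as strong as hits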
Yfh1-off respiration: enhancers of respiration in Yfh1-depleted yeast, dose response, Friedreich's ataxia, plus single-dose screen (AID 1465). S. cerevisiae Yfh1-off respiration, WST-1 reduction, 72 h; higher fold induction means a stronger effect. one-dose fold induction at 50 µM; EC50 in µM for titrated hits. 0.074% of 220,000 active;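 active = fold induction of absorbance versus untreated yeast above a set limit, then at least 30% activation at any dose in follow-up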;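 also: activators that raise dye reduction in frataxin-depleted yeast; strong numbers were not always called active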
Dynein cargo inh: inhibitors of GR-EGFP nuclear translocation, primary screen, dynein cargo transport inhibitor project, imaging, high-content, 3617.4 mouse cells; test concentration mostly 20 µM; stimulated with dexamethasone, 1 µM; active compounds read low; z-score, hits read low; 0.47% of 220,000 active;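 active = plate z-score of nuclear minus cytoplasmic receptor signal below a set negative limit, without overly bright fluorescence or cell loss, cut at about -3.5 in these data, passing the limit was not always enough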;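 also: z-score of nuclear minus cytoplasmic ring GR-EGFP intensity difference per well; some compounds called inactive have numbers as strong as hits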
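Schedule: 48 h induction, then 1 h compound, then 30 min agonist, 37 °C. Buffer or medium: tetracycline-free induction medium containing charcoal-stripped FBS. Reagent: 1.0 µM final dexamethasone stimulus. Evaluation: nuclear versus cytoplasmic GR-EGFP signal, averaged per well. Signal: high-content fluorescence imaging after fixation.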
M17LAP inhibition: P. falciparum M17LAP inhibitors, primary screen, biochemical, fluorogenic H-Leu-NHMec substrate, 1536-well (AID 1619) | inhibition, % at 30 µM; hits with a dose series show IC50 in µM | recombinant M17LAP, H-Leu-NHMec fluorogenic kinetic assay; higher % means a stronger effect | Leucine aminopeptidase (Plasmodium falciparum (isolate 3D7)) | 0.38% of 220,000 active;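 active = compound inhibiting the enzyme by more than half at any dose during confirmatory dose-response retesting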;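 also: plate controls were full reaction with DMSO carrier for no effect and no enzyme background for full effect; strong numbers were not always called active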
Dynein cargo inh cytoplasmic EGFP: second read-out of Dynein cargo inh, no call of its own (marks repeat the call); z-score; measured here: cytoplasmic GR-EGFP intensity; active compounds read high
Dynein cargo inh nuclear GR-EGFP: also measured in Dynein cargo inh; calls as there; z-score; measured here: nuclear GR-EGFP intensity;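 lower value marks the stronger effect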
Dynein cargo inh cell count: second read-out of Dynein cargo inh, no call of its own (marks repeat the call); z-score; measured here: cell count per field
Insulin prom up cell count: also measured in Insulin prom up; calls as there; cell count; measured here: cytotoxicity, nuclei count;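 total cells summed across four imaged fields per well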
MT stabilizer Hoechst-high %: recorded beside MT stabilizer, whose call it bears; % Hoechst-high responders; measured here: nuclear condensation Hoechst responders;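 share of cells brighter than vehicle mean plus two SD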
MT stabilizer cytotoxicity %: further read-out of MT stabilizer, marked with its call; toxicity, %; measured here: cytotoxicity by cell density;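 0% = mean cell density of plate MIN control wells and 100% = no cells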
Autophagy HCS cell loss 18 h: second read-out of Autophagy HCS, no call of its own (marks repeat the call); toxicity, %; measured here: cell loss, nuclei count;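 cell loss after 18 h compound exposure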
The depositor's hits bear a star; i = inactive; . = not tested or not shown.

SMILES	Insulin prom up	Insulin prom up cell count	Autophagy HCS	Autophagy HCS cell loss 18 h	MT stabilizer	MT stabilizer Hoechst-high %	MT stabilizer cytotoxicity %	Yfh1-off respiration	Dynein cargo inh	Dynein cargo inh cytoplasmic EGFP	Dynein cargo inh nuclear GR-EGFP	Dynein cargo inh cell count	M17LAP inhibition
Cc1nc(N2CCN(c3ccccc3)CC2)[nH]c(=O)c1Cc1cccc2ccccc12	0.92	1424	i	-1	3.8	1.7	0.0	.	1.8	-0.17	1	-1.5	6%
COc1cc2c(cc1OC)C(C(=O)NCc1cccnc1)C(c1cccnc1)N(C)C2=O (stereo not given)	0.03	1582	i	-1	2.0	2.0	15	i	-0.82	-0.39	-0.37	0.95	-1%
CCSc1nnc(-c2ccncc2)o1	0.01	1512	i	2	3.3	1.3	0.1	i	0.48	-0.15	0.63	-1.2	12%
CC(=O)OCP(C)(=O)COC(C)=O	0.01	1218	.	.	2.6	1.5	4.7	i	3.8	-0.21	2.3	-1.3	8%
c1ccc(Cn2nnc3c(N4CCc5ccccc5C4)ncnc32)cc1	-0.42	1598	i	13	6.1	3.6	4.0	i	-0.53	-0.29	-0.51	0.68	-2%
Cc1ccc(-c2nc3c(cnn3-c3ccccc3)c(=O)o2)cc1	.	.	i	5	1.8	2.1	13	i	-0.58	-0.24	-0.12	0.73	13%
O=S(=O)(c1cccc2nsnc12)N1CCN(c2ncccn2)CC1	0.42	1688	i	8	2.3	1.4	6.2	i	-0.34	-0.24	0.013	0.3	-4%
C[N+]1(CC(=O)Nc2ccc(F)cc2)CCN(C(=O)c2ccco2)CC1	-0.36	1617	i	-4	3.0	2.2	7.8	i	0.17	-0.13	-0.72	-0.72	-8%
O=C(CSc1nnc2c3ccccc3c3ccccc3c2n1)Nc1ccccc1F	-0.63	1406	i	2	6.5	1.5	4.6	.	0.0039	0.31	0.69	1.3	-8%
CCCOc1ccc(OC(=O)c2ccc(Br)o2)cc1	-0.05	1547	i	16	4.6	4.1	4.8	i	-1	-0.35	-0.29	0.65	2%
Cc1ccc(C(=O)C(OC(=O)CNC(=O)c2ccc(Cl)cc2)c2ccccc2)cc1 (stereo not given)	0.07	1410	i	5	1.4	1.4	7.0	i	-0.18	-0.18	-0.26	0.49	-2%
O=C(NCCCN1CCN(c2ccccc2F)CC1)C1CCC(=O)N1C1CCCCC1 (stereo not given)	-0.03	1592	i	-41	4.3	2.6	2.6	i	-0.88	-0.35	-0.67	-0.25	-4%
S=c1[nH]nc(CCc2ccccc2)n1Cc1ccccc1	0.07	1484	i	18	2.3	1.7	6.1	i	-0.28	-0.2	0.26	0.61	-6%
COC(=O)c1sc(=S)n(-c2ccccc2OC)c1N	0.52	1367	i	-29	3.3	2.0	1.1	i	0.14	0.049	0.67	0.39	6%
CC(=O)NC1(C(F)(F)F)NC(=O)N(C2CCCCC2)C1=O (stereo not given)	0.61	1548	i	0	2.7	2.2	7.6	i	-0.17	-0.17	-0.76	-0.063	0%
Cc1ccc(CNC(=O)CCNC(=O)c2ccco2)cc1	0.86	1657	i	0	2.4	2.0	6.7	i	-0.11	-0.029	0.12	-0.041	3%
Cc1cccc(-n2c(C)cc(/C=N/n3cnnc3)c2C)c1	-2.4	815	i	13	7.1	3.1	7.3	i	0.21	-0.23	-0.74	0.63	28%
CCn1c(CC(=O)Nc2ccc(C)c(Cl)c2)nnc1SCc1ccc(Cl)c(Cl)c1	-0.03	1543	i	20	3.2	1.6	11	i	1.3	-0.12	1.1	0.23	-3%
COc1ccc(OC2C(=O)N(Cc3ccc4c(c3)OCO4)C2c2cccs2)cc1 (stereo not given)	-1.7	1014	i	-14	1.2	1.6	5.3	i	0.41	-0.2	0.77	-0.46	0%
COC(=O)C1=C(C)N=C2SC(C#N)=C(N)N2C1c1ccc(OC)cc1 (stereo not given)	-0.68	1516	i	16	8.1	3.6	4.5	i	-0.19	-0.22	0.52	0.68	-7%
CCn1c(SCC(=O)N2CCCCC2)nc(O)cc1=O	-0.3	1476	i	-28	3.0	1.7	7.0	i	-0.28	-0.21	0.61	-0.17	-4%
COc1ccc(Nc2nc(N)nc(CN(C)C3CCCCC3)n2)cc1	-0.93	1509	i	-4	2.4	1.0	6.1	i	-1	-0.2	-0.53	0.63	11%
Cc1cccc(Cn2cnc3c(nnn3Cc3ccc(Cl)cc3)c2=O)c1	-0.04	1563	i	-2	3.4	1.0	7.6	i	0.7	-0.067	0.5	0.11	13%
CCn1c(NCc2cc(Br)ccc2NS(=O)(=O)c2ccc(C)cc2)nc2ccccc21	-0.69	1138	i	2	1.8	1.4	9.4	i	-0.98	-0.16	-0.58	0.49	-8%

An excerpt of these results, with each value named:
COc1ccc(Nc2nc(N)nc(CN(C)C3CCCCC3)n2)cc1
  Insulin prom up: -0.93 | Insulin prom up cell count: 1509 | Autophagy HCS: i | Autophagy HCS cell loss 18 h: -4 | MT stabilizer: 2.4 | MT stabilizer Hoechst-high %: 1.0 | MT stabilizer cytotoxicity %: 6.1 | Yfh1-off respiration: i | Dynein cargo inh: -1 | Dynein cargo inh cytoplasmic EGFP: -0.2 | Dynein cargo inh nuclear GR-EGFP: -0.53 | Dynein cargo inh cell count: 0.63 | M17LAP inhibition: 11%
Cc1ccc(CNC(=O)CCNC(=O)c2ccco2)cc1
  Insulin prom up: 0.86 | Insulin prom up cell count: 1657 | Autophagy HCS: i | Autophagy HCS cell loss 18 h: 0 | MT stabilizer: 2.4 | MT stabilizer Hoechst-high %: 2.0 | MT stabilizer cytotoxicity %: 6.7 | Yfh1-off respiration: i | Dynein cargo inh: -0.11 | Dynein cargo inh cytoplasmic EGFP: -0.029 | Dynein cargo inh nuclear GR-EGFP: 0.12 | Dynein cargo inh cell count: -0.041 | M17LAP inhibition: 3%

More compounds.
SMILES	Insulin prom up	Insulin prom up cell count	Autophagy HCS	Autophagy HCS cell loss 18 h	MT stabilizer	MT stabilizer Hoechst-high %	MT stabilizer cytotoxicity %	Yfh1-off respiration	Dynein cargo inh	Dynein cargo inh cytoplasmic EGFP	Dynein cargo inh nuclear GR-EGFP	Dynein cargo inh cell count	M17LAP inhibition
CCOC(=O)Cn1nc(C)n(-c2ccc(C(C)(C)C)cc2)c1=O	0.01	1541	i	1	0.7	1.6	12	i	0.2	0.082	0.37	-0.52	12%
Cn1c(=O)n(-c2cccc(Cl)c2)c(=O)c2c3c(sc21)COC(C)(C)C3	-0.12	1610	i	-5	3.1	1.4	1.6	i	0.079	-0.24	-0.6	0.92	3%
O=C(Nc1ccc([N+](=O)[O-])cc1)/C(=C/c1cccc([N+](=O)[O-])c1)NC(=O)C1CCCCC1	-0.47	1553	i	-2	5.3	2.4	5.6	i	-0.69	-0.3	-1.2	0.54	-1%
Cc1ccc(S(=O)(=O)N2CCN(C(=O)CN3CCOCC3)C2)cc1	-0.71	1569	i	6	4.9	4.3	5.1	i	0.91	-0.25	0.53	-0.91	-2%
CCN(CC)C(=O)C(=O)N/N=C/c1cccs1	0.24	1620	i	6	2.3	0.9	2.8	i	1.7	-0.18	0.47	-0.051	13%
CC1(C)CC(=O)C=C(NCc2ccc(Cl)c(Cl)c2)C1	0.27	1723	i	-21	3.5	1.9	8.0	i	0.48	-0.16	0.59	-0.22	-1%
Cc1ccc(SCC(=O)Nc2ccc(N3CCN(c4ccccc4)CC3)c(F)c2)cc1	0.28	1615	i	5	2.3	1.7	9.1	i	-0.65	-0.18	0.23	0.077	-9%
C=C(C)[C@H]1CC=C(C)/C(=N/NC(=O)CNc2ccccc2OC)C1	.	.	i	4	3.6	1.9	9.5	i	-0.17	-0.29	0.11	0.21	7%
Cc1ccc(Nc2nnns2)cc1	1.8	1116	i	3	2.8	1.5	6.3	i	-0.11	0.094	0.31	0.35	-7%
CCCOc1ccc(C2C(C(=O)c3ccco3)=C(O)C(=O)N2CCN2CCOCC2)cc1OC (stereo not given)	0.09	1631	i	-43	4.1	1.6	10	.	-0.97	-0.36	-0.62	2	17%
O=C(O)CN=C1NC2(CCCC2)Cc2ccccc21	0.18	1612	i	0	1.3	1.3	2.9	i	0.15	-0.14	0.28	-0.46	-11%
Cc1oc(-c2cccs2)nc1CS(=O)CC(=O)NCCCOC(C)C (stereo not given)	0.06	1543	i	-3	5.1	3.0	5.8	i	-0.91	0.64	-0.22	0.56	3%
CCOC(=O)Cc1csc(NC(=O)CCCCCN2C(=O)c3ccccc3C2=O)n1	-1.4	1491	i	2	2.3	2.0	0.9	i	0.13	-0.23	-0.81	-1	-4%
CCOc1ccccc1C(=O)N(Cc1cccs1)C1CCS(=O)(=O)C1 (stereo not given)	.	.	i	9	3.4	2.0	16	i	-0.61	-0.36	-0.68	0.83	11%
COc1ccc(/C=N/NC(=O)COc2ccccc2-c2ccccc2)cc1	0.91	898	i	32	13	53	31	i	1.7	-0.045	0.45	-1.2	-3%
COc1cc(Cl)c(C)cc1NC(=O)CNC(=O)Cn1cnc2ccccc2c1=O	0.18	1246	i	-37	2.4	2.3	3.1	i	0.22	-0.2	0.66	0.81	-1%
COCc1cc(C)nc(OCC(=O)N/N=C/c2ccc(-c3cccc([N+](=O)[O-])c3)o2)c1C#N	-0.01	1543	i	16	2.0	1.4	7.5	.	-0.31	-0.2	0.27	0.7	-1%
COc1ccc(/C=N/N=C/c2ccc(OC)c(O)c2)cc1O	1.3	1618	i	3	0.9	1.0	7.4	i	0.15	0.0013	-0.14	0.53	-1%
Cc1ccc(S(=O)(=O)n2nc(C)c(Br)c2C)c(C)c1C	0.23	1458	i	8	2.8	1.1	3.4	i	0.62	-0.18	0.38	-0.56	-4%
CCC1CCCCN1CCCNC(=O)Cn1nc(-c2ccc(C)cc2)ccc1=O (stereo not given)	-0.57	1675	i	0	1.2	2.1	13	i	-0.29	0.46	-0.0017	0.29	6%
CCCCOC(=O)Nc1cccc(C(=O)OCC)c1	-0.21	1676	i	4	3.9	1.2	5.0	i	1.1	-0.17	-0.41	-0.32	-1%

Complete entries as entered above. Screens in order: Insulin prom up	Insulin prom up cell count	Autophagy HCS	Autophagy HCS cell loss 18 h	MT stabilizer	MT stabilizer Hoechst-high %	MT stabilizer cytotoxicity %	Yfh1-off respiration	Dynein cargo inh	Dynein cargo inh cytoplasmic EGFP	Dynein cargo inh nuclear GR-EGFP	Dynein cargo inh cell count	M17LAP inhibition
COc1ccc(/C=N/N=C/c2ccc(OC)c(O)c2)cc1O is listed as 1.3	1618	i	3	0.9	1.0	7.4	i	0.15	0.0013	-0.14	0.53	-1%
COCc1cc(C)nc(OCC(=O)N/N=C/c2ccc(-c3cccc([N+](=O)[O-])c3)o2)c1C#N is listed as -0.01	1543	i	16	2.0	1.4	7.5	.	-0.31	-0.2	0.27	0.7	-1%
COc1ccc(/C=N/NC(=O)COc2ccccc2-c2ccccc2)cc1 is listed as 0.91	898	i	32	13	53	31	i	1.7	-0.045	0.45	-1.2	-3%

Only part of the results is shown; the hit share may differ from the screen's.
